Assay outcomes deposited in PubChem BioAssay by several laboratories.
Beta cell apopt: inhibitors of cytokine-induced beta cell apoptosis, primary screen, luminescence; INS-1E cytokine-induced death, ATP luminescence, 48 h; percent of positive-control rescue, neutral wells zero; protection from apoptosis, % (concentration not given with the values); 0.8% of 300,000 active; AID 435005, 2010;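 active = all replicates at 75% or more, or half of them and the mean; inconclusive = half reach 75% but not the mean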;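 also: 0% = cytokine-treated negative control wells and 100% = positive control rescue; higher means more ATP so stronger rescue from cytokine killing; wells of about 40 µL received 100 nL stock; the first replicate is given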
MLL AF4-AF9 inh: inhibitors of AF4 peptide binding to AF9, primary screen, biochemical, AlphaScreen, biotin-AF4 peptide, FLAG-AF9, single point. Protein AF-9 (Homo sapiens), P42568. inhibition, % at 10 µM. 0.47% of 350,000 active. AID 651704, 2012;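 active = every replicate reaching a set inhibition limit, whatever the replicate mean, cut at about 25% in these data; inconclusive = mean inhibition reaches that limit but some replicates miss it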;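 also: 0% = plate neutral control median and 100% = total signal loss; the record names both 10 and 1 µM as test concentration; the first replicate is given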
Target sequence (P42568 whole entry, looked up): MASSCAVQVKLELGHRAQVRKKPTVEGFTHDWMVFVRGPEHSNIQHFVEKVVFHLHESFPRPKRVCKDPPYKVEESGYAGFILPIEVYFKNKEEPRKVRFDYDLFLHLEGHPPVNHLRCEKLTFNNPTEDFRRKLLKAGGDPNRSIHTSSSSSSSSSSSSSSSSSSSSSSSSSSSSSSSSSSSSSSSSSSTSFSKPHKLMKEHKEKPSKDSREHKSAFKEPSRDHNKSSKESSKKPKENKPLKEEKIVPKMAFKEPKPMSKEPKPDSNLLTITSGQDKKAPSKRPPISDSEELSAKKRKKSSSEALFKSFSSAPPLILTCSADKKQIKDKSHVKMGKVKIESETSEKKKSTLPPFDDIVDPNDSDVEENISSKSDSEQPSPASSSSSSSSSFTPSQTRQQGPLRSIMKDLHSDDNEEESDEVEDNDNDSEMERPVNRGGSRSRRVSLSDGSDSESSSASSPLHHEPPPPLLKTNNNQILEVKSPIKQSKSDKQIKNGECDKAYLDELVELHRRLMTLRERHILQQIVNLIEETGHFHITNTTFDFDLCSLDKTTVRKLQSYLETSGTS
Vif A3G: inhibitors of Vif binding to APOBEC3G peptide, primary screen, biochemical, TR-FRET, GST-Vif 1-94, biotin-A3G peptide, dose response retest (AID 1117319) | Virion infectivity factor (Human immunodeficiency virus type 1 group M subtype B (isolate … | TR-FRET GST-Vif / biotin-A3G peptide binding; higher % means a stronger effect; test concentration not given here; strong numbers were not always called active | one-dose inhibition, %; IC50 in µM for titrated hits | 0.57% of 260,000 active;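 active = above the screen mean plus three standard deviations and confirmed in dose response; inconclusive = results disagree or hit not tested in dose response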;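 also: Vif residues 1-94 fused to GST binding biotinylated APOBEC3G peptide 110-148; 0% = full assay without inhibitor and 100% = GST in place of GST-Vif; retest series ran down from 100 µM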
T cruzi inh: inhibitors of intracellular T. cruzi growth, primary screen, luminescence, NIH3T3 host cells; T. cruzi beta-gal in NIH3T3, 90 h; inhibition, % (concentration not given with the values); 1.4% of 300,000 active;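 active = mean inhibition across valid replicates above about 55%, limit read from the data; inconclusive = mean below that limit but half or more replicates reach it; inactive = mean below it, under half of replicates reach it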;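 also: signal also drops with host cell toxicity which is not excluded here; 0% = plate median of DMSO wells and 100% = zero luminescence signal; higher percent means less beta-gal luminescence so fewer parasites; stock transfer was 50 nL into about 50 µL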
A1 inh: caspase 3/7 activation in MEF A1-2A-BIM cells, primary screen, A1 inhibitor project, cell-based, luminescence, HTS | caspase activation, % (no concentration beside the values) | Caspase-Glo 3/7 luminescence, 3 h; percent of clofoctol response, vehicle zero | 0.066% of 330,000 active;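 active = over half of replicate activation scores above 10%, or exactly half above 10 with the replicate mean above 10; inconclusive = replicate mean below 10 yet half the replicates above 10; inactive = over half of replicates below 10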;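 also: wells of about 30 µL received 50 nL stock; many hits fall short of the cut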
Calb FLC: C. albicans growth inhibition with fluconazole, primary screen, CaCi-2 strain, Alamar Blue fluorescence. C. albicans CaCi-2 (fluconazole-resistant clinical isolate) + fluconazole, 48 h. growth inhibition, % (test concentration not listed). 0.57% of 300,000 active. AID 1979, 2009;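 active = most replicates above 75%; inconclusive = exactly half above 75%; inactive = most below 75%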;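 also: all wells also contain fluconazole at 8 µg/ml as a sub-toxic cotreatment; 0% = median of DMSO wells and 100% = median of geldanamycin control wells; wells of about 8 µL received 7.5 nL stock; the first replicate is given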
RanGTP-Imp inh: inhibitors of RanGTP-importin-beta interaction, primary screen, biochemical, FRET, CFP-Ran, YFP-importin-beta, homogeneous; 1.1% of 300,000 active; inhibition, % (no concentration beside the values); cell-free CFP-Ran/YFP-importin-beta FRET ratio;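 active = most replicates above 15%; inconclusive = exactly half above 15%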;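 also: 0% = DMSO wells and 100% = Ran loaded with GDP instead of GTP; wells of about 40 µL received 100 nL stock; the first replicate is given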
LANA-H2B inh: blockers of LANA interaction with H2A/H2B – biochemical, FP readout, HTS, primary screen; AID 2629, 2010; 0.6% of 320,000 active; cell-free LANA-H2A/H2B peptide, fluorescence polarization; inhibition, % (no concentration beside the values); Protein LANA1 (Human herpesvirus 8 type P (isolate GK18)), Q9QR71; in the data active = inhibition mostly above about 10%, no sharp cut-off; inactive = mostly below about 6.7%;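 also: stock transfer was 7.5 nL into about 10 µL; 0% = median of vehicle wells and 100% = median of positive control wells; one replicate is shown; the record names a cut of 25% in any replicate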
Active calls of the source: *; ? = inconclusive; nt = not tested or not shown.

SMILES	Beta cell apopt	MLL AF4-AF9 inh	Vif A3G	T cruzi inh	A1 inh	Calb FLC	RanGTP-Imp inh	LANA-H2B inh
COc1ccc2ccccc2c1/C=N/NC(=S)Nc1cc(S(=O)(=O)N2CCOCC2)ccc1N1CCOCC1	-4	nt	-1%	46	1.4	-13	1.5	4.7
COC(=O)c1cc(COc2ccc3c4c(c(=O)oc3c2)CCC4)c(C)o1	-1	nt	-6%	-6	-0.1	-6	2.2	nt
CCCc1cc(=O)n2c(nc3ccccc32)[nH]1	nt	nt	8%	-8	0.3	61	6.9	1.9
Cc1cc(C)c2cc(C#N)c(NCCOC(=O)c3ccccc3C)nc2c1	-3	nt	2%	23	0.2	?	7.6	-3.1
CNC(=O)c1cc(C(=O)c2ccc(Cl)cc2)c[nH]1	nt	-1.2	-2%	9	0.5	12	3.1	-2.8
Cc1cc(OCC(=O)N2CCC(C(N)=O)CC2)c2c(C)c(C)c(=O)oc2c1	-8	nt	nt	-9	0.4	0	-1.2	0.8
COc1ccc(NS(=O)(=O)c2ccc(O)c(C(=O)OCC(=O)N3CCCCC3)c2)cc1	-2	-0.7	4%	nt	0.1	nt	nt	4.5
Cc1cc(C(=O)NCc2ccc(S(N)(=O)=O)cc2)cs1	1	-19	-2%	-20	1.0	2	-4.2	-0.7
C/C(=N\Nc1nc(-c2ccccc2)cs1)c1cccs1	8	nt	15%	1	-1.9	-2	2.4	-2.1
O=C(O)Cc1cn(-c2ccccc2)nc1-c1ccccc1	-4	-0.6	-4%	-8	1.0	16	2.4	-0.9
Cc1nn(CC(=O)NCCCN2CCCCC2)c(=O)c2cccn12	-7	-6.0	nt	5	-0.5	-2	-1.8	-4.4
COC(=O)c1ccc(C2/C(=C(/O)c3ccc(OC)cc3)C(=O)C(=O)N2CC2CCCO2)cc1 (stereo not drawn)	nt	nt	?	-9	0.4	-1	-2.5	-5.2
CCc1cccc(C)c1NC(=S)NCC(c1cccnc1)N1CCOCC1 (stereo not drawn)	3	nt	nt	2	0.9	23	-1.4	-2.4
COc1cccc(CN2CCNC(=O)C2CC(=O)NCCN2CCCCC2=O)c1 (stereo not drawn)	nt	2.8	nt	-10	nt	4	-3.7	nt
COc1ccc(OCC(O)CN2CCN(c3ccc(Cl)cc3)CC2)cc1 (stereo not drawn)	2	1.4	-2%	-6	-0.6	-2	-1.1	-3.1
O=C(CSc1nnc(NC(=O)C2CC2)s1)Nc1ccc(F)cc1F	-2	-1.6	nt	-14	-0.7	10	0.7	-0.1
Cc1ccc2nc(-c3ccc(O)c(O)c3)cn2c1	16	-1.6	nt	-43	-8.1	46	?	-2.2
N#CCCN(C(=O)CN1C(=O)NC2(CCCC2)C1=O)c1ccccc1F	-2	nt	-6%	-3	0.4	-1	0.0	4.1
C#CCOc1ccc(C2C3=C(CC(C)(C)CC3=O)N(CC(=O)O)C3=C2C(=O)CC(C)(C)C3)cc1OC	-2	-1.5	nt	-16	1.4	-44	22*	1.7
O=C(O)CN=CC1=C(O)CC(c2ccccc2)CC1=O (stereo not drawn)	-4	1.4	nt	-2	0.0	-1	3.8	-1.7
CC(=O)C1(C)OC(N)=C(C#N)C(c2ccccc2)C1(C#N)C#N (stereo not drawn)	4	nt	10%	1	0.6	-6	3.6	1.8
CCOC(=O)N/N=C\c1ccc(OC(=O)c2ccco2)cc1	-1	-6.1	8%	-5	-1.3	21	0.0	-2.8
CCN(Cc1cnn(C)c1)Cc1nc(C(c2ccccc2)c2ccccc2)no1	-4	4.7	10%	-8	-0.5	3	5.2	0.7
COc1ccc(/C=N/NC(=O)COc2cccc3ccccc23)c(C(=O)O)c1OC	2	nt	nt	-8	1.1	-11	2.3	-1.7
Cn1c(=O)c2c(ncn2Cc2cccc(Cl)c2)n(C)c1=O	-2	nt	-4%	-17	-0.6	2	7.6	-1.1

Next section.
SMILES	Beta cell apopt	MLL AF4-AF9 inh	Vif A3G	T cruzi inh	A1 inh	Calb FLC	RanGTP-Imp inh	LANA-H2B inh
CCOC(=O)NC(=O)c1cn(-c2ccc(OC)cc2)c(=O)[nH]c1=O	nt	-1.7	nt	-17	1.1	-5	4.4	11
OCCC1CN(Cc2cccc3nccnc23)CCN1Cc1ccc(F)c(F)c1 (stereo not drawn)	0	0.8	16%	11	0.4	-15	-14	-6.9
Cc1cc(C)nc(SCC(=O)N/N=C/c2cccn2-c2ccc(O)cc2)n1	-2	nt	3%	-8	1.1	14	-3.6	-1.5
O=C1CNC(=S)N1C(CO)c1ccccc1 (stereo not drawn)	-4	-0.3	nt	-15	-0.7	-17	-0.1	-2.2
CC(=O)Nc1ccc(S(=O)(=O)NC2(C(F)(F)F)NC(=O)N(Cc3ccccc3)C2=O)cc1 (stereo not drawn)	nt	-0.9	21%	-13	0.6	-5	1.7	6.6
COc1ccc(C(=O)c2coc3ccc(O)c(CN4CCCCC4)c23)cc1	-10	-3.2	?	17	-0.1	-1	?	10
COc1cccc(-c2nnc(SCC3CNC(=O)O3)n2-c2ccc(Cl)cc2)c1 (stereo not drawn)	-4	nt	nt	-4	0.2	-4	-0.2	-1.8
C=CCn1c(CCNC(=O)c2cccs2)n[nH]c1=S	-6	nt	0%	-19	0.3	-12	-3.2	0.5
O=[N+]([O-])c1ccc2c(c1)nc1n2CCSC1	-3	-7.2	4%	-6	-0.5	-5	1.9	-2.3
N#Cc1cc2c(nc1SCc1ccccc1)CCCC2	4	-3.0	22%	24	0.8	-13	0.2	-1.0
COc1ccccc1CCC(=O)Nc1ccc2c(c1)CN(Cc1ccc(C)o1)CC2	-7	7.8	nt	-16	-0.1	-5	-0.4	1.0
Cc1ccc(S(=O)(=O)N=C2SCCCS2)cc1	1	nt	0%	3	-0.7	-7	2.7	-1.1
COc1ccc(OC)c(NC(=O)CS(=O)(=O)Cc2nc(-c3ccccc3C)oc2C)c1	3	-1.0	-1%	-4	-0.1	1	-3.3	-7.7
CCOC(=O)N1CCN(C(=O)c2ccccc2NC(=O)c2ccc(C(C)(C)C)cc2)CC1	0	0.7	-6%	5	-0.3	-1	-2.2	0.5
CCN1C(=O)[C@@H]2[C@@H](c3ccc(-c4ccccc4)cc3)N3CCCC[C@@]3(C(=O)OC)[C@@H]2C1=O	-3	4.4	nt	32	-0.6	4	-2.2	-3.7
CC(C)CCNC(=O)c1cc(-c2cccs2)nc2ccccc12	4	0.3	2%	5	0.1	nt	0.7	4.9
COc1ccc(C2C(C#N)=C(/N=C/N3CCN(C)CC3)OC3=C2C(=O)CC(C)(C)C3)cc1OC (stereo not drawn)	-2	nt	-2%	4	-0.6	14	1.8	-6.2
CC1CCN(C(=O)CSc2nc3c(cnn3-c3ccc(Cl)cc3)c(=O)[nH]2)CC1	nt	1.0	-10%	3	nt	15	-1.9	nt
C=CCOc1ccc(/C=N/NC(=O)C(=O)Nc2ccccn2)cc1OC	-6	0.4	nt	-8	2.9	39	0.4	1.5
O=C(Cc1ccc(-n2c(=O)c3ccccc3n(Cc3cccc([N+](=O)[O-])c3)c2=O)cc1)NCC1CCCO1 (stereo not drawn)	1	-1.0	nt	-1	0.3	3	5.4	2.2
O=[N+]([O-])C1C(c2ccccc2)=NOC1c1ccccc1O (stereo not drawn)	0	-17	nt	-21	-0.6	-11	1.4	-2.0
CCCc1cc(C(=O)Nc2ccc(Cl)cn2)cs1	-8	-1.1	nt	-3	-8.8	-27	1.2	-2.0
S=c1[nH]ncn1/N=C/c1ccc(N2CCOCC2)cc1	3	nt	-3%	-13	-1.1	-15	0.0	2.4
Cc1ccc(OC(C)C(=O)Nc2ccc(F)cc2)c([N+](=O)[O-])n1 (stereo not drawn)	0	-1.3	-11%	nt	-0.2	nt	nt	-1.2
Cc1cc2nc3c(nc2cc1C)CCCC3	nt	-14	2%	-13	-6.1	0	5.2	-3.8

Further records
SMILES	Beta cell apopt	MLL AF4-AF9 inh	Vif A3G	T cruzi inh	A1 inh	Calb FLC	RanGTP-Imp inh	LANA-H2B inh
COc1ccc(CCNC(=O)Cn2nc(C)n3nc(-c4ccccc4)cc3c2=O)cc1OC	1	-1.8	nt	2	-0.4	17	3.4	0.1
CCc1cc(=O)oc2cc(C)cc(OCC(=O)NCC(O)c3ccccc3)c12 (stereo not drawn)	6	-2.5	-5%	6	0.8	-2	-2.3	3.1
CCCC(=O)Nc1nc(CC(=O)OCC)cs1	0	0.3	5%	-8	0.8	12	1.9	2.9
Cc1ccc(-c2c(C)n([O-])c3c([n+]2=O)CCCCC3)cc1	-2	3.8	-1%	-4	0.4	10	1.8	-0.6
COc1cccc(N2CC(C(=O)Nc3nnc(SCC(=O)N4CCCC4)s3)CC2=O)c1 (stereo not drawn)	0	0.8	0%	-7	1.4	9	-0.8	-1.2
CNC(=S)N/N=C/c1ccc(N2CCOCC2)s1	-3	-2.1	nt	58*	-0.1	15	-2.4	7.1
COc1cccc(CNC(=O)CCNC(=O)C2CCN(S(=O)(=O)c3ccc(F)cc3)CC2)c1	-7	-2.5	?	5	0.7	7	-2.8	-0.5
COc1ccc(N2CCc3c(C)nc4c(OC)cccc4c32)cc1	49	0.9	-12%	20	0.0	-21	0.3	1.6
C/C(=N\NC(=O)CN1CCN(S(=O)(=O)c2ccc(C)cc2)CC1)c1cccnc1	-6	nt	nt	-5	-0.3	-5	7.9	0.5
COC(=O)c1nn(-c2cccc(Cl)c2)ccc1=O	2	-1.8	-2%	-5	0.5	-6	3.0	11
Cc1ccc(Oc2nc(-c3ccccc3)ncc2S(=O)(=O)c2ccc(C)cc2)cc1	3	nt	-2%	20	0.3	-3	3.6	4.5
Cc1nnc(SCC(=O)c2ccccc2)n1Cc1ccccc1	1	nt	7%	0	0.4	0	-0.6	-0.6
CCC(CC)c1nc(C#N)c(NCc2ccccc2)o1	-1	nt	nt	-7	0.0	14	-3.2	-5.5
OCCC1CN(Cc2cccn2-c2ccccn2)CCN1C1CCCCC1 (stereo not drawn)	-2	0.3	-2%	-3	1.2	-21	5.9	-1.0
O=C(Cc1ccccc1)Nc1ccccc1C(=O)N1CCCCCC1	6	-2.0	15%	-11	0.0	-7	-4.4	-1.0
CC1CCCC(NC(=O)c2ccc3c(c2)N(Cc2ccccc2)C(=O)CS3=O)C1C (stereo not drawn)	-1	-2.8	?	0	1.4	17	0.2	-0.4
CC(=O)Nc1ccc(-c2nnc(SCc3ccccc3C#N)n2C)cc1	-5	nt	21%	-4	0.4	-5	-0.3	2.9
CC(C)C(NC(=O)c1ccco1)C(=O)OCc1cc([N+](=O)[O-])cc2c1OCOC2 (stereo not drawn)	3	1.5	3%	-4	-0.3	-4	5.1	1.2
Cc1ccc(-c2onc3ccc(C(=O)/C=C/N(C)C)cc23)cc1	-8	8.6	-4%	-4	0.7	-7	5.3	1.1
COc1ccc2[nH]c(C(=O)Nc3ccc4c(c3)OCO4)cc2c1	-6	1.4	-61%	-4	-0.6	-3	1.4	5.4
